Source: PubChem (several laboratories)
Autofluor counter – compound fluorescence in toxin protease inhibitor counterscreen; fluorescence intensity (concentration not given with the values); 360,000 tested, 3.1% active; compound autofluorescence counterscreen, microsphere flow cytometry; stronger effect = higher value;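 active means at least 3 SD above the mean of all compounds, about 16000 in these data; inconclusive means too few beads counted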;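 further: 100 nL of 1 mM stock went into each well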
Mtb hypoxia inh – PubChem AID 1159583; fluorescence inhibition, % (test concentration not listed); 300,000 tested, 0.1% active; M. tuberculosis hypoxia-regulated fluorescent reporter, fluorescence;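 active means 35 to 45% if threefold the growth effect, above 45% if 1.5-fold the growth effect; inactive means the rest, general growth blockers included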;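 further: wells of about 50 µL received 100 nL stock; 0% = vehicle wells and 100% = reference inhibitor wells; whole bacteria with a GFP reporter of the hypoxia response; strong numbers were not always called active; many hits fall short of the cut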
Sa RN4220 lethal – growth inhibition of S. aureus RN4220, primary screen, OD600. inhibition, % (no concentration beside the values). 16 h. 330,000 tested, 0.33% active;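 active means z-score of -3 or lower and OD600 up to 0.18 on both plates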;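 further: plate controls were untreated cells for no effect and reference antibiotic for full effect; stock transfer was 100 nL into about 80 µL; one replicate is shown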
BJeLR viability – MLPCN primary cell-based screen for lethality selective to Ras in HRASV12 cells. BJeLR (HRASV12) viability, CellTiter-Glo ATP luminescence, 48 h; reference of the scale not given here. inhibition, % (concentration not given with the values). 300,000 tested, 0.17% active. AID 1554, 2009;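 active means replicate mean above 50%; inconclusive means above 50% but judged a plate artefact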;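 further: 50 nL library stock added to about 25 µL; numbers are from one replicate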
PrP UTR inh – inhibition of PrP 5' UTR reporter expression | 340,000 tested, 0.35% active | cell-based PrP 5' UTR mRNA reporter, plate reader | inhibition, % (concentration not given with the values);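 active means every replicate at 50% or more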;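 further: 0 = median of the neutral control wells; tested in H4 reporter cells; numbers are from one replicate; inactives centre near -14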
Sa ugtP lethal – growth inhibition of ugtP-null S. aureus, primary screen, RN4220 ugtP deletion, OD600; growth inhibition, % (no concentration beside the values); 330,000 tested, 0.54% active; 16 h; some inactives read as strong as hits;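 active means z-score under -3 and OD600 up to 0.15 on both plates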;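 further: plate controls were untreated wells for no effect and antibiotic for full effect; wells of about 80 µL received 100 nL stock; the first replicate is given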
Mtb hypoxia inh growth – further read-out of Mtb hypoxia inh, marked with its call; growth inhibition, %; measured here: M. tuberculosis growth (absorbance);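 0% = vehicle and 100% = reference antibiotic; read after six days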
* = called active by the depositor; ? = inconclusive; . = not tested or not shown.

Second line of a record: Autofluor counter	Mtb hypoxia inh	Mtb hypoxia inh growth	Sa RN4220 lethal	BJeLR viability	PrP UTR inh	Sa ugtP lethal
COc1cccc(NC(=O)c2nc3ncccn3n2)c1
 : 2345	6	-3	-12	1	-11	-1
CCOC(=O)C1=C(COC(=O)c2cc(S(=O)(=O)N(C)C)ccc2C)NC(=O)NC1C (configuration not stated)
 : 2845	7	5	-2.5	.	-17	-5
CC(C)C[C@H](NC(=O)OC(C)(C)C)c1nnc(SCc2ccccc2)o1
 : ?	12	7	1.3	3	-14	13
COc1ccc(S(=O)(=O)Nc2cc3c4c(c2)CCN4C(=O)CC3)cc1
 : .	-2	8	5.4	2	-1	4
CC(=O)n1cc(/C=N/NC(=O)c2sc(C)nc2C)c2ccccc21
 : 4222	.	.	.	3	-18	.
O=C(c1ccc(COc2ccc(Cl)cc2Cl)o1)N1CCCC1
 : 4217	17	-3	10	-1	-17	13
C/C(=N\NS(=O)(=O)c1ccc(C(C)(C)C)cc1)c1ccccc1
 : 3184	.	.	.	2	-1	.
CC1=C(C(=O)OCC2CCCO2)C(c2ccsc2)C2=C(CC(C)(C)CC2=O)N1 (configuration not stated)
 : 3302	12	9	7.2	11	1	8
COc1cccc(NC(=S)N2CCC(NC(=O)c3ccco3)CC2)c1
 : 3376	6	4	6.7	3	-22	7
CC(C)(C)NCc1cc(Cl)ccc1OCc1ccccc1F
 : 2559	.	.	5.0	7	-19	-6
CCOc1ccc(S(=O)(=O)N2CCC(C(=O)N3CCCCCC3)CC2)cc1C
 : ?	6	7	2.5	-6	6	-1
COc1ccc(NC(=O)C(=O)Nc2cccc3cccnc23)cc1OC
 : 3094	-5	2	1.5	3	-39	9
O=C(CN1C(=O)C2CCCCC2C1=O)Nc1ccc(S(=O)(=O)Nc2ncccn2)cc1 (configuration not stated)
 : 4295	8	3	3.8	11	-9	8
CC(C)(C)c1ccc(-c2nnc(N)s2)cc1
 : 4756	6	9	25	7	-60	1
COc1cc2c(cc1NC(=O)c1cc(-c3cccnc3)nc3ccc(C)cc13)oc1ccccc12
 : 8630	-5	-2	1.2	3	-3	-18
COc1ccccc1C(=O)NCCC(=O)N1CCN(c2ccc(C(F)(F)F)cn2)CC1
 : 4785	0	-5	-0.4	.	-1	6
COC(=O)c1cccc(C(=O)Nc2ccc(C)cc2)n1
 : 4236	11	14	8.5	12	-24	3
CC1CCN(C(=O)CSc2nc(C(C)C)nc3c2c(=O)n(C)c(=O)n3C)CC1
 : 5404	4	10	3.4	2	-16	-3
O=C(CN(CC1CCCO1)C(=O)CNS(=O)(=O)c1ccc(Cl)cc1)NCc1ccc(F)cc1 (configuration not stated)
 : 6323	8	3	4.6	-18	-20	3
COc1ccccc1-c1cnnc(N/N=C/c2ccc(-c3cccc(Br)c3)o2)n1
 : 9298	.	.	.	-7	-6	.
CCN(CC(=O)Nc1ccccc1C(F)(F)F)C(=O)c1cc(-c2cccs2)nn1-c1ccccc1
 : 4138	13	12	2.9	3	11	3
FC(F)(F)c1cccc(CN2CCSCC2)c1
 : 4004	-3	-4	6.8	-3	-11	2
COc1ccc(S(=O)(=O)N2CCC(C(=O)N[C@H](C(=O)NC3CCCC3)C(C)C)CC2)cc1
 : 4838	-2	2	1.1	1	-7	9
CC(CCc1ccccc1)NC(=O)C(=O)Nc1ccccc1 (configuration not stated)
 : 2028	6	8	5.2	4	-26	4
CCCOc1ccc(C(=O)C(c2ccccc2)N2CCOCC2)cc1 (configuration not stated)
 : 2514	0	-2	18	0	-22	11
Cc1cc(C)nc(N2CCCC(C(=O)NC(C)C)C2)n1 (configuration not stated)
 : 4309	5	7	0.2	-3	-33	2
Cc1c(NS(=O)(=O)c2ccc(NC3CCCC3)c([N+](=O)[O-])c2)c(=O)n(-c2ccccc2)n1C
 : 2089	2	0	3.1	10	1	11
Cc1sc2ncnc(N3CCCCC3)c2c1C
 : 13183	8	6	6.3	-3	.	1
Cc1ccc(S(=O)(=O)Nc2ccc3cn[nH]c3c2)cc1C
 : 2734	12	2	4.1	.	.	6
CCn1c(C)c(P(=O)(N2CCOCC2)N2CCOCC2)c2ccccc21
 : 4390	0	0	0.5	-7	-15	2
O=c1[nH]c(/C=C/c2cccc([N+](=O)[O-])c2)c([N+](=O)[O-])c(=O)[nH]1
 : 3097	19	11	5.2	5	-14	10
COc1ccc(/C=N/NC(=O)c2ccc(NC(=O)c3ccccc3Br)cc2)cc1
 : 1931	.	.	.	12	-16	.
Cc1cccc(N/C=C/C(=O)c2cccs2)c1C
 : 9748	8	8	7.1	1	-73	2
Cc1cccc(-c2cc(C(=O)Nc3sc(C)c(C)c3C(N)=O)c3ccccc3n2)c1
 : 2395	-12	-5	16	6	8	2
O=C(O)c1ccc(N=Nc2c(O)[nH]c3ccccc23)cc1
 : 4854	.	.	.	8	-12	.
O=C(O)Cc1ccc(NC(=O)C2CCCCC2C(=O)O)cc1 (configuration not stated)
 : 4129	4	3	2.7	5	-13	4
O=C(NCCc1nc2ccccc2[nH]1)/C(=C/c1ccc2c(c1)OCO2)NC(=O)c1ccccc1Cl
 : 2158	2	3	3.0	1	-67	0
O=C1CCC(C(=O)N2CCOCC2)CN1Cc1cccc(C(F)(F)F)c1 (configuration not stated)
 : 6175	15	8	4.0	7	-10	1
CC1CC(C)CN(C(=O)C2CCN(S(=O)(=O)c3cccc4cccnc34)CC2)C1 (configuration not stated)
 : 6029	17	2	-1.9	-6	-12	2
Cc1ccc(NC(=O)CSc2nnc(C(F)(F)F)n2C)cc1[N+](=O)[O-]
 : 2406	-3	7	-3.1	3	-16	-4
CCc1ccc(-c2nc(SCC(=O)NC3CCCC3)n[nH]2)cc1
 : 5671	0	-2	0.8	12	-14	2
Cc1nnc(SCC(=O)N2CCCC2)n1-c1ccc(F)cc1
 : 5988	-5	1	3.7	-2	-26	2
Cc1ccccc1Nc1c(-c2cccnc2)nc2ccccn12
 : 3387	5	1	2.6	2	-12	-1
COc1ccc(S(=O)(=O)Nc2ccccc2C(=O)Nc2nc(-c3ccc(F)cc3)cs2)cc1OC
 : 2571	3	4	59	25	-125	50
N#Cc1ccc(-n2nccc2-c2cnc3n(c2=O)CCS3)cc1
 : 2968	.	.	1.3	-1	-7	7
CCN(CC)S(=O)(=O)c1ccc(N2CC(C(=O)Nc3cccc(C(=O)NC4CC4)c3)CC2=O)cc1 (configuration not stated)
 : 3124	7	4	1.4	.	0	-7
CCOc1cc(C=NNC(=O)Nc2ccccc2)ccc1O
 : .	13	-2	8.5	.	.	3
CC(CCc1ccccc1)NC(=O)CN1CCN(Cc2ccc(Cl)cc2)C1=O (configuration not stated)
 : 5875	-6	2	-0.9	-7	-7	13
CCCCN(C(=O)c1ccc(OC(F)(F)F)cc1)c1c(N)n(CCC)c(=O)[nH]c1=O
 : 4347	-2	-9	4.5	-7	-10	6
O=C(CSc1nc2c(c(=O)[nH]1)CCC2)Nc1ccc(F)cc1
 : 4196	12	-3	3.0	1	-26	-3
CCN1CCN(C(=O)C2CCCN(c3ncnc4c3nc3n4CCCCC3)C2)CC1 (configuration not stated)
 : ?	2	0	5.0	-9	2	8
O=C(CCNC(=O)c1ccco1)Nc1ccc(N2CCOCC2)cc1
 : 4577	17	3	4.7	-1	-19	3
NNc1n[nH]c(=S)n1N
 : 3738	.	.	.	-8	-11	.
COc1ccc(C/C(N)=N/n2cnnc2)cc1Cl
 : 3500	.	.	-2.7	4	4	-3
Cc1ccsc1C(=O)C1CCCN(Cc2ccc(-n3cccn3)cc2)C1 (configuration not stated)
 : 5709	2	20	-1.3	0	-3	-6
COc1cccc(-c2cc(C(=O)Nc3ccc([N+](=O)[O-])cn3)c3ccccc3n2)c1
 : 2301	5	8	3.3	12	-11	-26
Cc1ccc2cccc(OCC(=O)c3cc(C)n(Cc4ccco4)c3C)c2n1
 : .	11	6	-12	8	.	0
CN(C)c1ccc(C(=S)N2CCN(S(=O)(=O)c3ccccc3)CC2)cc1
 : .	1	-4	-4.1	15	-7	-1
O=C(CCc1ccccc1)Nc1nc2n(n1)C(c1ccccc1)CC(=O)N2 (configuration not stated)
 : 2433	2	-8	-11	-4	-5	-3
COC(=O)c1sccc1NN=Cc1cccc(Oc2ccccc2)c1
 : .	8	3	3.1	.	.	0

Next section
Second line of a record: Autofluor counter	Mtb hypoxia inh	Mtb hypoxia inh growth	Sa RN4220 lethal	BJeLR viability	PrP UTR inh	Sa ugtP lethal
CCOc1ccc(C(C(=O)NC2CCCC2)N(Cc2ccccc2)C(=O)c2nsc(Cl)c2Cl)cc1 (configuration not stated)
 : 5245	0	1	-1.9	-6	-14	-16
COc1ccc(O)c(/C=N/NC(=O)CCC(=O)Nc2cccc(C)c2)c1
 : 4938	.	.	.	-4	-23	.
COc1cccc(N2CCN(C(=O)CN(c3cc(C)cc(C)c3)S(=O)(=O)c3c(C)noc3C)CC2)c1
 : 5510	-1	7	1.7	-11	-11	-2
O=C(Nc1ccc(S(=O)(=O)Nc2ncccn2)cc1)c1nn(Cc2ccccc2)c(=O)c2ccccc12
 : 5261	0	6	9.6	12	12	-7
COC(=O)c1cc(=O)nc2sc(-c3ccccc3)nn12
 : 11323	5	7	1.8	4	-6	-1
Cc1ccc(C)c(N/N=C2\CCCNC2=O)c1
 : 2226	.	.	.	2	-23	.
COc1ccc(-c2nc(CN3CCN(c4ncccn4)CC3)c(C)o2)cc1C
 : 4489	0	10	4.7	-5	-17	4
COc1ccc(C(=O)N2CCN(S(=O)(=O)c3ccc(Cl)cc3)CC2)cc1OC
 : 21574*	0	8	5.4	10	-32	3
C/C(=N/O)c1no[n+]([O-])c1/C(C)=N\O
 : 3431	.	.	.	2	-19	.
Cn1c(CNC2CCCCC2)nc2ccccc21
 : 2484	4	2	6.4	5	-16	0
O=C(Cc1cccc2ccccc12)Nc1nnc(-c2cccc([N+](=O)[O-])c2)s1
 : 6032	-1	5	-23	-17	-10	-14
CC(C)NC(=O)N(Cc1ccc(Cl)cc1)Cc1cccs1
 : 5874	-1	-6	5.0	4	-37	5
COc1ccc(CCNC(=O)Cn2c(=O)n(CC3CCCO3)c(=O)c3ccccc32)cc1OC (configuration not stated)
 : 3339	-8	-9	2.1	11	1	0
CC(=O)N1CCC(=NNc2ncc(C(F)(F)F)cc2Cl)CC1
 : 4114	6	0	6.8	0	-21	6
CCOC(=O)N1CCC(NC(=O)c2ccc(CS(=O)c3cccc(Cl)c3)o2)CC1 (configuration not stated)
 : 4054	1	7	2.8	-4	-5	7
O=C(NCc1ccon1)C1CCC(=O)N(Cc2cccc(C(F)(F)F)c2)C1 (configuration not stated)
 : 5950	-7	1	1.5	5	5	-3
O=C(NCc1ccc(Cl)cc1)c1cnn2ccccc12
 : 5930	7	5	2.5	2	-71	12
COc1ccc(CNC(=O)c2cccnc2)cc1
 : 4357	1	11	-2.6	-23	-34	1
COc1cc(CO)cc(Br)c1OCC(=O)N1CCCCC1
 : 21247*	3	-5	1.6	-9	-2	5
CCC(C=NNC(=O)C(=O)NN=CC(CC)CC)CC
 : .	-8	7	-1.3	.	.	6
O=C(Oc1ccc(NC2=NS(=O)(=O)c3ccccc32)cc1)c1cccnc1
 : 4086	1	-2	8.4	-7	-8	12
COc1ccc(COC(=O)C2CCN(C(=O)c3ccc(Cl)cc3)CC2)cc1F
 : 3875	-6	3	-6.2	.	-23	0
O=C1CSC(=Nc2ccc(O)cc2)N1
 : 3922	4	-5	-2.7	-8	-15	-1
CCOC(=O)c1ccc(N2C(=O)C3CCCN3C2=S)cc1 (configuration not stated)
 : 3748	5	4	1.4	.	-18	3
COc1nccnc1NS(=O)(=O)c1ccc(NC(=S)NC(=O)c2cccnc2)cc1
 : 5679	8	15	3.6	4	-15	6
Cc1ccc(S(=O)(=O)N2CCOCC2)cc1C(=O)NCCc1ccc(Cl)cc1
 : 3111	5	4	1.0	.	-22	5

3 structures out of the list, sorted by length of the SMILES, falling.
Second line of a record: Autofluor counter	Mtb hypoxia inh	Mtb hypoxia inh growth	Sa RN4220 lethal	BJeLR viability	PrP UTR inh	Sa ugtP lethal
CCOC(=O)c1ccc(N2C(=O)C3CCCN3C2=S)cc1 (configuration not stated)
 : 3748	5	4	1.4	.	-18	3
O=C(NCc1ccc(Cl)cc1)c1cnn2ccccc12
 : 5930	7	5	2.5	2	-71	12
COc1ccc(CNC(=O)c2cccnc2)cc1
 : 4357	1	11	-2.6	-23	-34	1
